High-throughput results (PubChem)
Mtb hypoxia inh: inhibitors of hypoxia-regulated fluorescent reporter in Mycobacterium tuberculosis; M. tuberculosis hypoxia-regulated fluorescent reporter, fluorescence; fluorescence inhibition, % (concentration not given with the values); actives 0.1% (n = 300,000); AID 1159583;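 active means 35 to 45% if threefold the growth effect, above 45% if 1.5-fold the growth effect; inactive means the rest, general growth blockers included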;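 further: wells of about 50 µL received 100 nL stock; 0% = vehicle wells and 100% = reference inhibitor wells; whole bacteria with a GFP reporter of the hypoxia response; strong numbers were not always called active; many hits fall short of the cut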
PrP UTR inh: suppresses PrP 5' UTR mRNA reporter expression | cell-based PrP 5' UTR mRNA reporter, plate reader | inhibition, % (no concentration beside the values) | actives 0.35% (n = 340,000) | AID 488862;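 active means every replicate at 50% or more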;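 further: 0 = median of the neutral control wells; tested in H4 reporter cells; numbers are from one replicate; inactives centre near -14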
BJeLR viability: BJeLR cell viability loss; actives 0.17% (n = 300,000); AID 1554; inhibition, % (concentration not given with the values); BJeLR (HRASV12) viability, CellTiter-Glo ATP luminescence, 48 h; reference of the scale not given here;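 active means replicate mean above 50%; inconclusive means above 50% but judged a plate artefact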;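 further: 50 nL library stock added to about 25 µL; numbers are from one replicate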
Bead autofluor: compound fluorescence in toxin protease inhibitor counterscreen | compound autofluorescence counterscreen, microsphere flow cytometry; stronger effect = higher value | fluorescence intensity (concentration not given with the values) | actives 3.1% (n = 360,000) | AID 624483;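 active means at least 3 SD above the mean of all compounds, about 16000 in these data; inconclusive means too few beads counted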;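 further: 100 nL of 1 mM stock went into each well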
ugtP null kill: growth inhibition of S. aureus ugtP deletion strain; S. aureus RN4220 ugtP deletion, OD600 growth, 16 h; some inactives read as strong as hits; growth inhibition, % (test concentration not listed); actives 0.54% (n = 330,000);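 active means z-score under -3 and OD600 up to 0.15 on both plates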;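 further: plate controls were untreated wells for no effect and antibiotic for full effect; wells of about 80 µL received 100 nL stock; the first replicate is given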
Sa RN4220 lethal: S. aureus RN4220 growth inhibition | OD600, 16 h | inhibition, % (test concentration not listed) | actives 0.33% (n = 330,000);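 active means z-score of -3 or lower and OD600 up to 0.18 on both plates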;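 further: plate controls were untreated cells for no effect and reference antibiotic for full effect; stock transfer was 100 nL into about 80 µL; one replicate is shown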
Mtb hypoxia inh growth: further read-out of Mtb hypoxia inh, marked with its call; growth inhibition, %; measured here: M. tuberculosis growth (absorbance);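 0% = vehicle and 100% = reference antibiotic; read after six days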
* = called active by the depositor. This is a random part of the collection. Share with any hit: about 3.9%.

The opening 2 records, to show the layout:
What do the screens show for `C/C(N)=C(/C#N)C(=O)CSc1nnc(C)n1-c1ccccc1`?
Mtb hypoxia inh: 8.8; PrP UTR inh: -17.4; BJeLR viability: 6.5; Bead autofluor: 4049; ugtP null kill: 4.5; Sa RN4220 lethal: -0.8; Mtb hypoxia inh growth: -7.4

Results for COc1ccc(NC(=S)N=Nc2c(O)[nH]c3ccccc23)cc1 ?
Mtb hypoxia inh: 8.7; PrP UTR inh: 2.7; BJeLR viability: 2.3; Bead autofluor: 3686; ugtP null kill: -8.7; Sa RN4220 lethal: 1.5; Mtb hypoxia inh growth: 6.9

All compounds of this part, from the first entry:
What do the screens show for `C/C(N)=C(/C#N)C(=O)CSc1nnc(C)n1-c1ccccc1`?
Mtb hypoxia inh: 8.8; PrP UTR inh: -17.4; BJeLR viability: 6.5; Bead autofluor: 4049; ugtP null kill: 4.5; Sa RN4220 lethal: -0.8; Mtb hypoxia inh growth: -7.4

Results for COc1ccc(NC(=S)N=Nc2c(O)[nH]c3ccccc23)cc1 ?
Mtb hypoxia inh: 8.7; PrP UTR inh: 2.7; BJeLR viability: 2.3; Bead autofluor: 3686; ugtP null kill: -8.7; Sa RN4220 lethal: 1.5; Mtb hypoxia inh growth: 6.9

What do the screens show for `Nc1c(C(=O)C2CC2)sc2nc(-c3ccccc3)cc(C(F)(F)F)c12`?
Mtb hypoxia inh: 11.3; PrP UTR inh: 41.1; BJeLR viability: -3.9; Bead autofluor: 7328; ugtP null kill: 18.2; Sa RN4220 lethal: 1.6; Mtb hypoxia inh growth: 5.9

Results for O=C(O)CCSCCCN1C(=O)c2cccc3cccc(c23)C1=O ?
Mtb hypoxia inh: -5.0; PrP UTR inh: -14.7; BJeLR viability: 0.2; Bead autofluor: 2551; ugtP null kill: 4.2; Sa RN4220 lethal: 5.1; Mtb hypoxia inh growth: 1.8

How did CCCCn1c(N)c(N(CCOC)C(=O)c2ccc(C)c(S(=O)(=O)N3CCCCC3)c2)c(=O)[nH]c1=O do in these assays?
Mtb hypoxia inh: 2.8; PrP UTR inh: -8.1; BJeLR viability: -8.1; Bead autofluor: 5388; ugtP null kill: 7.1; Sa RN4220 lethal: 2.0; Mtb hypoxia inh growth: 6.4

What do the screens show for `CCOc1ccc(NC(=O)CCN2CCN(c3ccccc3F)CC2)cc1`?
Mtb hypoxia inh: 14.4; PrP UTR inh: -15.8; BJeLR viability: -16.4; Bead autofluor: 11018; ugtP null kill: 4.6; Sa RN4220 lethal: 6.3; Mtb hypoxia inh growth: 11.1

Results for COc1ccc(/C=C/C(=O)NCc2cn(C)nc2C)cc1COc1ccc(Br)cc1 ?
Mtb hypoxia inh: 2.3; PrP UTR inh: -8.7; BJeLR viability: 2.0; Bead autofluor: 11521; ugtP null kill: 18.3; Sa RN4220 lethal: -6.3; Mtb hypoxia inh growth: 7.7

How did Cc1ccc(-c2c[n+](CC(=O)Nc3ccccc3)c3n2CCC3)cc1 do in these assays?
Mtb hypoxia inh: 18.7; PrP UTR inh: -19.9; BJeLR viability: -5.0; Bead autofluor: 3862; ugtP null kill: 2.6; Sa RN4220 lethal: -1.5; Mtb hypoxia inh growth: 1.5

How did COc1ccc(S(=O)(=O)N2CCCC(C(=O)NCc3cccnc3)C2)cc1OC (centres undefined) do in these assays?
Mtb hypoxia inh: 0.9; PrP UTR inh: -54.3; BJeLR viability: -5.4; Bead autofluor: 4561; ugtP null kill: 0.8; Sa RN4220 lethal: 0.6; Mtb hypoxia inh growth: 6.4

Results for CCCCn1c(N)c(Sc2ccccc2[N+](=O)[O-])c(=O)[nH]c1=O ?
Mtb hypoxia inh: -7.5; PrP UTR inh: -0.2; BJeLR viability: -1.7; Bead autofluor: 3779; ugtP null kill: -2.2; Sa RN4220 lethal: -2.3; Mtb hypoxia inh growth: 8.6

Results for COc1cc2ccccc2cc1C(=O)N1CCOCC1 ?
Mtb hypoxia inh: 7.6; PrP UTR inh: -7.6; BJeLR viability: 2.2; Bead autofluor: inconclusive; ugtP null kill: 13.9; Sa RN4220 lethal: 0.6; Mtb hypoxia inh growth: 1.0

What do the screens show for `CC(C)[C@H](N[C@@H](C)c1ccccc1)c1c(O)ccc2ccccc12`?
Mtb hypoxia inh: 9.4; PrP UTR inh: -19.6; BJeLR viability: -0.4; Bead autofluor: 3765; ugtP null kill: -11.2; Sa RN4220 lethal: 0.7; Mtb hypoxia inh growth: 5.5

What do the screens show for `Cc1ccc(C(=O)Nc2sc(Cc3ccc4c(c3)OCO4)c(C)c2C(N)=O)cc1`?
Mtb hypoxia inh: 9.2; PrP UTR inh: 1.3; BJeLR viability: -23.5; Bead autofluor: 5507; ugtP null kill: -5.5; Sa RN4220 lethal: -10.8; Mtb hypoxia inh growth: 6.6

What do the screens show for `CC(C)(C)CN1C(=O)C(=O)NCC1CCCCN` (centres undefined)?
Mtb hypoxia inh: 9.9; ugtP null kill: 1.8; Sa RN4220 lethal: 1.3; Mtb hypoxia inh growth: 9.1

How did C=C1CCN([C@@H](Cc2ccccc2)C(=O)NCCCc2ccccc2)S(=O)(=O)c2ccccc21 do in these assays?
PrP UTR inh: -11.3; BJeLR viability: 0.7; Bead autofluor: 3217

Results for COc1cc2cnc(-c3ccccc3)cc2cc1OC ?
Mtb hypoxia inh: 3.2; PrP UTR inh: -24.2; Bead autofluor: 3822; ugtP null kill: 42.2; Sa RN4220 lethal: 16.0; Mtb hypoxia inh growth: 4.9

Results for CCN(CC)c1ccc(C2C(C(=O)OCCOC)=C(C)NC3=C2C(=O)CC(C)(C)C3)cc1 (centres undefined) ?
PrP UTR inh: -18.1; BJeLR viability: -0.3; Bead autofluor: 4358; ugtP null kill: -2.5; Sa RN4220 lethal: -1.8

Results for CCCCn1nnnc1SCC(=O)N(CC)CC ?
PrP UTR inh: 11.4; BJeLR viability: -4.3; Bead autofluor: 4049; ugtP null kill: 7.4; Sa RN4220 lethal: 4.5

Results for Cc1ccc2nc(/C(C#N)=C\c3ccc(OC(=O)c4cccs4)cc3)[nH]c2c1 ?
Mtb hypoxia inh: 7.3; PrP UTR inh: -82.9; BJeLR viability: 6.2; Bead autofluor: 11684; ugtP null kill: -2.1; Sa RN4220 lethal: 11.2; Mtb hypoxia inh growth: 7.4

Results for CN(C)C=NNC(=O)c1ccccc1 ?
Mtb hypoxia inh: -2.4; ugtP null kill: 1.1; Sa RN4220 lethal: 2.3; Mtb hypoxia inh growth: -4.7

Results for COc1ccc(C(C)n2c(C)c3c(C)nnc(C)c3c2C)cc1 (centres undefined) ?
Mtb hypoxia inh: 4.2; PrP UTR inh: 3.6; BJeLR viability: 6.6; Bead autofluor: 16371*; ugtP null kill: -0.7; Sa RN4220 lethal: 0.4; Mtb hypoxia inh growth: 3.7

Results for CCn1c(CNC(=O)c2cccs2)nnc1SCC(=O)Nc1ccc(Cl)cc1 ?
Mtb hypoxia inh: 5.1; PrP UTR inh: -3.6; BJeLR viability: -24.8; Bead autofluor: 17189*; ugtP null kill: 2.2; Sa RN4220 lethal: -0.7; Mtb hypoxia inh growth: 6.5

What do the screens show for `Cc1nn(-c2ccccc2)nc1CNC(=O)C1CC1`?
Mtb hypoxia inh: 6.0; PrP UTR inh: -18.3; BJeLR viability: 0.4; Bead autofluor: 3864; ugtP null kill: 0.6; Sa RN4220 lethal: 1.5; Mtb hypoxia inh growth: 12.4

How did COc1ccccc1NC(=O)CN1C(=O)NC2(CCCCCCC2)C1=O do in these assays?
Mtb hypoxia inh: 6.5; PrP UTR inh: -59.6; BJeLR viability: 11.7; Bead autofluor: 4426; ugtP null kill: -1.6; Sa RN4220 lethal: 2.3; Mtb hypoxia inh growth: 2.5

What do the screens show for `CCCN1C(=O)c2cc(C(=O)Nc3ccccc3C)ccc2C1Nc1ccccc1C` (centres undefined)?
Mtb hypoxia inh: -17.1; PrP UTR inh: -1.8; BJeLR viability: 5.6; Bead autofluor: 3397; ugtP null kill: -4.0; Sa RN4220 lethal: -2.8; Mtb hypoxia inh growth: 7.3

How did Cc1cccc(NC(=O)COc2coc(CN3CCN(c4ccccc4)CC3)cc2=O)c1C do in these assays?
Mtb hypoxia inh: 10.2; PrP UTR inh: -22.7; BJeLR viability: 4.8; Bead autofluor: 4522; ugtP null kill: 8.8; Sa RN4220 lethal: 2.3; Mtb hypoxia inh growth: -1.0

What do the screens show for `O=C(Nc1ccncc1)C1(c2ccccc2)CCCC1`?
Mtb hypoxia inh: 17.9; PrP UTR inh: -32.4; BJeLR viability: -4.1; Bead autofluor: 4145; ugtP null kill: 9.2; Sa RN4220 lethal: 3.2; Mtb hypoxia inh growth: 7.0

How did CCOc1cccc(-c2c(C(=O)N/N=C(\C)c3ccncc3)nnn2-c2nonc2N)c1 do in these assays?
PrP UTR inh: -27.5; BJeLR viability: -1.0; Bead autofluor: 4333

Results for COc1cccc(N(CC(=O)Nc2cccc(F)c2)S(C)(=O)=O)c1 ?
Mtb hypoxia inh: 9.5; PrP UTR inh: -18.4; BJeLR viability: -12.2; Bead autofluor: 3167; ugtP null kill: -9.2; Sa RN4220 lethal: -11.9; Mtb hypoxia inh growth: 13.6

What do the screens show for `CCOC(=O)N1CCN(C(=O)C2CC(=O)N(c3ccc(OC)cc3)C2c2ccc(OC)cc2)CC1` (centres undefined)?
Mtb hypoxia inh: -67.8; PrP UTR inh: -37.0; BJeLR viability: 2.8; Bead autofluor: 7702; ugtP null kill: 7.5; Sa RN4220 lethal: 1.8; Mtb hypoxia inh growth: -14.6

Results for O=C(COC(=O)Cn1cnc2ccccc21)NCCCc1ccccc1 ?
Mtb hypoxia inh: 1.4; PrP UTR inh: -13.0; BJeLR viability: -7.2; Bead autofluor: 4259; ugtP null kill: 3.6; Sa RN4220 lethal: 0.6; Mtb hypoxia inh growth: 5.9

Results for CCCCN(CC)CCNC(=O)c1ccc2c(Cl)c3c(nc2c1)CCC3 ?
Mtb hypoxia inh: 19.1; PrP UTR inh: -13.0; BJeLR viability: 10.0; Bead autofluor: 3763; ugtP null kill: -0.8; Sa RN4220 lethal: -6.3; Mtb hypoxia inh growth: 4.2

How did Cc1cc(Nc2ccc(Br)cc2F)n2ncnc2n1 do in these assays?
PrP UTR inh: -16.4; BJeLR viability: -6.0; Bead autofluor: 4368; ugtP null kill: 1.6; Sa RN4220 lethal: 0.7

What do the screens show for `CCOC(=O)c1cc(NC(=O)c2ccc(Cl)cc2)c(=O)n2c1oc1ccc(Cl)cc12`?
Mtb hypoxia inh: 3.9; PrP UTR inh: -17.0; BJeLR viability: 12.2; Bead autofluor: 9143; ugtP null kill: -7.7; Sa RN4220 lethal: 17.1; Mtb hypoxia inh growth: 0.3

Results for COc1cc(C)nc(N2CCCC(C(=O)Nc3cccc(Cl)c3C)C2)n1 (centres undefined) ?
PrP UTR inh: -5.1; BJeLR viability: -11.3; Bead autofluor: 3886; ugtP null kill: 4.7; Sa RN4220 lethal: -3.0

How did O=C(NCCO)C1(c2ccc(Cl)cc2)CCCC1 do in these assays?
Mtb hypoxia inh: -2.2; PrP UTR inh: -26.6; BJeLR viability: -1.4; Bead autofluor: 24150*; ugtP null kill: -0.6; Sa RN4220 lethal: 1.5; Mtb hypoxia inh growth: 8.1

What do the screens show for `COc1ccc2oc(-c3ccccc3)c(C(=O)N3CCOCC3)c2c1`?
PrP UTR inh: 7.7; BJeLR viability: 3.8; Bead autofluor: 4817; ugtP null kill: -13.8; Sa RN4220 lethal: 0.9

Results for CCCCn1c(N)c(N(CCC(C)C)C(=O)C2CCN(C(=O)c3ccccc3C)CC2)c(=O)[nH]c1=O ?
Mtb hypoxia inh: -6.7; PrP UTR inh: -7.0; BJeLR viability: 0.8; Bead autofluor: 3233; ugtP null kill: 2.8; Sa RN4220 lethal: 2.4; Mtb hypoxia inh growth: 4.4

What do the screens show for `CCOc1ccc(NC(=O)COC(=O)c2ccc3c(c2)C(=O)N(CCc2ccccc2)C3=O)cc1`?
Mtb hypoxia inh: -3.7; PrP UTR inh: -8.6; BJeLR viability: -4.9; Bead autofluor: 8684; ugtP null kill: 0.3; Sa RN4220 lethal: 5.1; Mtb hypoxia inh growth: -0.3

How did O=c1c2ccccc2nc(-c2ccco2)n1/N=C/c1ccco1 do in these assays?
PrP UTR inh: -32.4; BJeLR viability: -7.0; Bead autofluor: 4143

What do the screens show for `CN(C)CCCN(C(=O)c1ccc2c(c1)CCCC2)c1nc2ccc(F)cc2s1`?
Mtb hypoxia inh: 17.0; PrP UTR inh: -0.3; BJeLR viability: 4.9; Bead autofluor: 11376; ugtP null kill: -13.7; Sa RN4220 lethal: -7.5; Mtb hypoxia inh growth: 7.9
